Ecoli growth: inhibitors of Escherichia coli growth. OD600, 23 h; active compounds read low. OD600 absorbance (concentration not given with the values). hit rate 0.21% among 330,000. AID 1053175;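 active = OD600 absorbance below the run mean of sample wells minus 3.6 SD, in any replicate, cut at about 0.56 in these data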;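 note: stock transfer was 300 nL into about 60 µL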
Beta2AR agonist: agonists of human beta-2 adrenergic receptor inducing internalization | AID 504454 | hit rate 0.43% among 340,000 | response, % (no concentration beside the values) | Am2.2-beta2AR cells, FAP receptor internalization, flow cytometry; reference of the scale not given here | P07550;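 active = response above a set limit, near 3 SD of response in nonfluorescent compounds, cut at about 42% in these data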;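 note: stock transfer was 100 nL into about 11 µL; a reference agonist was the positive control; negative values mostly stem from fluorescent compounds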
HNF4A DNA FP: change in binding of human HNF4 alpha to DNA; HNF4a-FITC DNA binding, fluorescence polarization, 1 h; activity change, % at 10 µM; hit rate 0.3% among 360,000; AID 1224865; in the data active = activity change above about 30%, passing the limit was not always enough;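 note: controls were the assay level and a saturating level of protein; the project sought stronger binding though the title names inhibitors; some compounds called inactive have numbers as strong as hits; positive values seem to mean higher polarization but the record does not say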
Target sequence (P41235 whole entry, looked up): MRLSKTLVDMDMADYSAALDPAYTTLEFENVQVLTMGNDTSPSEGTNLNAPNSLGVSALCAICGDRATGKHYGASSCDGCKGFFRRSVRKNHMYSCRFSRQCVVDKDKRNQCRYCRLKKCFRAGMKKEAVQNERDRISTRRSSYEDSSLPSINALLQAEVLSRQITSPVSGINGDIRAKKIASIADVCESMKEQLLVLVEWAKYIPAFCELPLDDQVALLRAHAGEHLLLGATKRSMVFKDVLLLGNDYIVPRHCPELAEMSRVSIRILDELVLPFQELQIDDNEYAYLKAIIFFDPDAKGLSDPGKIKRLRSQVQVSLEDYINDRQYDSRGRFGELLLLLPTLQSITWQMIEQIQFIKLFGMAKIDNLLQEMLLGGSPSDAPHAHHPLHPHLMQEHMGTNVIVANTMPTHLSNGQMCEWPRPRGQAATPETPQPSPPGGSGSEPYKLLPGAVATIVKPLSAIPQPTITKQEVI
UCH37 DUB inh: inhibitors of human deubiquitinating enzyme UCH37. Q9Y5K5. purified proteasome/UCH37, Ub-AMC cleavage fluorescence. inhibition, % (concentration not given with the values). hit rate 0.33% among 330,000;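 active = mean of two replicates above 20%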;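 note: 0% = compound-free wells with enzyme and 100% = wells lacking proteasome; stock transfer was 100 nL into about 20 µL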
Target sequence (Q9Y5K5 whole entry, looked up): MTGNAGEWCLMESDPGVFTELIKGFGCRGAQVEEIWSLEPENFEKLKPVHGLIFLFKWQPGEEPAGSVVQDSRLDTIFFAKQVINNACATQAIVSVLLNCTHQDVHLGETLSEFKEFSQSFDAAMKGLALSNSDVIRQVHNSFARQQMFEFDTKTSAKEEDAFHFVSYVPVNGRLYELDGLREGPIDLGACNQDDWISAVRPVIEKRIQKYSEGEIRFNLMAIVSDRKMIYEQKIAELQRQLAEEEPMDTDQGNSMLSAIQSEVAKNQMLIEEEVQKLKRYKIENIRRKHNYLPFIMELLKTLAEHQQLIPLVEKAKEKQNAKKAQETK
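assay system = human UCH37 enzyme supplied as purified proteasome complex | amount = proteasome at 0.15 nM in the dispensed enzyme solution | schedule = 30 min compound-proteasome preincubation then 25 min substrate reaction, room temperature | measured by = fluorescence, ex 355 nm, em 460 nm | benchmarks = no-proteasome wells (full inhibition) and compound-free wells (no inhibition)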
LANA-H2B inh: blocks KSHV LANA binding to histone H2A/H2B; Q9QR71; cell-free LANA-H2A/H2B peptide, fluorescence polarization; inhibition, % (test concentration not listed); hit rate 0.6% among 320,000; in the data active = inhibition mostly above about 10%, no sharp cut-off; inactive = mostly below about 6.7%;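 note: stock transfer was 7.5 nL into about 10 µL; 0% = median of vehicle wells and 100% = median of positive control wells; one replicate is shown; the record names a cut of 25% in any replicate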
Vif A3G: HIV-1 Vif–A3G interaction blockers – biochemical, TR-FRET, GST-Vif 1-94, biotin-A3G peptide, dose response retest, primary screen (AID 1117319); TR-FRET GST-Vif / biotin-A3G peptide binding; higher % means a stronger effect; test concentration not given here; strong numbers were not always called active; inhibition, %; hits with a dose series show IC50 in µM; hit rate 0.57% among 260,000;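 active = above the screen mean plus three standard deviations and confirmed in dose response; inconclusive = results disagree or hit not tested in dose response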;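 note: Vif residues 1-94 fused to GST binding biotinylated APOBEC3G peptide 110-148; 0% = full assay without inhibitor and 100% = GST in place of GST-Vif; retest series ran down from 100 µM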
Bfl-1 A1 inh: inhibitors of the anti-apoptotic protein A1, read as caspase activation; caspase activation, % (no concentration beside the values); MEF A1-2A-BIM cells, Caspase-Glo 3/7 luminescence, 3 h; percent of clofoctol response, vehicle zero; AID 2462; hit rate 0.066% among 330,000;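 active = over half of replicate activation scores above 10%, or exactly half above 10 with the replicate mean above 10; inconclusive = replicate mean below 10 yet half the replicates above 10; inactive = over half of replicates below 10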;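 note: wells of about 30 µL received 50 nL stock; many hits fall short of the cut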
Active calls of the source: *; ? = inconclusive; . = no result given; & = joins results of further samples. This is a random part of the collection. Share with any hit: about 2.1%.

SMILES | Ecoli growth | Beta2AR agonist | HNF4A DNA FP | UCH37 DUB inh | LANA-H2B inh | Vif A3G | Bfl-1 A1 inh
CC(=O)Nc1ncc(N=Nc2cccc(C(F)(F)F)c2)s1 | 0.69 | 7 | 1.8 | 5.8 | 3.2 | . | -0.3
COc1cc(OC)c(N2CC34C=CC(O3)C(C(=O)O)C4C2=O)cc1Cl (stereo not drawn) | 0.76 | 0 | -4.0 | -0.9 | -6.0 | -3% | 0.6
CCc1nnc(NC(=O)/C=C/c2ccco2)s1 | 0.71 | -2 | 1.1 | 7.3 | -17 | . | 1.4
CC1CCCC(C)N1C(=O)c1cc(F)c(F)cc1Cl (stereo not drawn) | 0.72 | 6 | 0.5 | 1.6 | 2.4 | ? | 1.0
CC(=O)c1ccc(NC(=O)CCNS(=O)(=O)c2cccc3nonc23)cc1 | 0.7 | 9 | -3.4 | 1.2 | 3.1 | 12% | 0.4
CC(C)(C)NS(=O)(=O)c1ccc(NC(=S)NC(=O)C2CC2)cc1 | 0.72 | -4 | 0.6 | 1.7 | -1.3 | -1% | 0.2
COc1ccccc1CNC(=O)C1CC2Cn3c(nc4cc(C)c(C)cc43)C2N1C (stereo not drawn) | 0.7 | 2 | -3.1 | 2.3 | -2.4 | . | 1.0
O=C(/C=C/c1ccccc1)NCCSCc1ccc(Cl)cc1 | 0.72 | -4 | 0.0 | 0.9 | -3.4 | 14% | 0.8
CC(Oc1ccccc1F)c1nnc(SCC(=O)NCc2ccc3c(c2)OCO3)o1 (stereo not drawn) | 0.71 | 14 | 3.5 | 2.3 | -3.2 | -7% | -0.2
CCc1ccc(-c2nc(CN3CCC(C(=O)NCCc4ccc(OC)c(OC)c4)CC3)c(C)o2)cc1 | 0.66 | 10 | 3.9 | 2.0 | 7.1 | -3%&2% | 0.2
CCOc1cc(CN2CCCCCC2)ccc1OC | 0.62 | 3 | -0.9 | 6.0 | -0.2 | . | -0.8
Cc1ccc(NC(=O)c2sc3ccccc3c2Cl)nc1 | 0.7 | -8 | -2.9 | -18 | -4.4 | -6% | -7.2
COc1cc(C(=O)NNC(=O)CNC(=O)C2CCCCC2)ccc1OC(C)C | 0.63 | 0 | 3.6 | 1.0 | 0.8 | -2% | 0.3
C/C(=N\OCC(=O)NC12CC3CC(CC(C3)C1)C2)c1cc2ccccc2o1 | . | -3 | 0.6 | . | -2.7 | 75% | 1.1
O=c1c2ccccc2[nH]c(=S)n1CCCN1CCN(c2ccccc2F)CC1 | 0.62 | 3 | -1.5 | 4.4 | -4.5 | -12% | -1.1
COc1cccc(NC2C=CS(=O)(=O)C2)c1 (stereo not drawn) | 0.77 | 4 | 3.8 | 0.8 | 1.5 | -5% | 0.5
CCOC(=O)c1ccc(NCc2ccncc2)cc1 | 0.67 | 1 | 3.9 | 2.8 | -0.6 | -2% | 0.8
Cc1cc(N2C(=O)C(O)=C(C(=O)c3cc4ccccc4o3)C2c2cccc(Cl)c2)no1 (stereo not drawn) | . | 8 | 1.1 | . | -4.2 | . | 0.5
CCC(=O)NC(C)C(c1cccs1)N1CCN(Cc2ccccc2)CC1 (stereo not drawn) | 0.71 | -5 | -3.5 | 1.8 | 1.5 | -2% | 0.8
COc1ccccc1N1CCN(CC(=O)c2ccc(F)cc2)CC1 | 0.69 | -2 | 0.8 | -8.6 | -1.0 | . | -0.2
CCCN(CCC)S(=O)(=O)c1ccc(C(=O)Nc2nc3c(s2)CCc2ccccc2-3)cc1 | 0.73 | 12 | -0.4 | -28 | -2.3 | . | 0.7
O=C(Nc1ccccc1)Nc1ccc(Oc2cccnc2)nc1 | 0.63 | -10 | 4.6 | 1.9 | 1.6 | 5% | -2.3
CCC(=O)Nc1ccc(Cl)c(NC(=S)NC(=O)COc2ccccc2)c1 | 0.73 | -2 | -3.0 | 1.6 | -2.9 | -4% | -0.8
O=C(Nc1nnc(Cc2ccccc2)s1)C1CCN(C(=O)c2ccco2)CC1 | 0.68 | -10 | 1.0 | 4.8 | 5.3 | -4% | 0.4
O=C1CC(C(=O)N2CCCc3ccccc32)CN1c1ccc(Cl)cc1 (stereo not drawn) | 0.69 | -2 | 4.8 | 1.9 | -4.1 | . | -0.3

Continued; it opens with the three that closed the last part.
SMILES | Ecoli growth | Beta2AR agonist | HNF4A DNA FP | UCH37 DUB inh | LANA-H2B inh | Vif A3G | Bfl-1 A1 inh
CCC(=O)Nc1ccc(Cl)c(NC(=S)NC(=O)COc2ccccc2)c1 | 0.73 | -2 | -3.0 | 1.6 | -2.9 | -4% | -0.8
O=C(Nc1nnc(Cc2ccccc2)s1)C1CCN(C(=O)c2ccco2)CC1 | 0.68 | -10 | 1.0 | 4.8 | 5.3 | -4% | 0.4
O=C1CC(C(=O)N2CCCc3ccccc32)CN1c1ccc(Cl)cc1 (stereo not drawn) | 0.69 | -2 | 4.8 | 1.9 | -4.1 | . | -0.3
CCN(CC)c1ccc(NC(=O)CSc2nnc3nc(C)cc(C)n23)cc1 | 0.75 | -2 | 0.1 | 1.1 | -4.4 | 6% | 0.2
COc1ccc(C2(CNC(=O)c3ccc(N)cc3)CCCC2)cc1 | 0.67 | -2 | -0.6 | 0.5 | 2.2 | . | 0.0
CCOC(=O)C1CCCN(CCC(=O)Nc2ccc(F)c(F)c2)C1 (stereo not drawn) | 0.69 | -4 | 0.5 | 5.1 | 0.9 | 29% | 0.8
CCOc1ccc(CCNC(=O)C(CC)n2nc(C)n3c(cc4sccc43)c2=O)cc1OCC (stereo not drawn) | 0.66 | 0 | 3.4 | 0.8 | 1.4 | -10%&-13% | 0.3
CCOc1ccc(NC(=O)C(C)Sc2nnnn2C)cc1 (stereo not drawn) | 0.67 | 3 | 2.8 | 2.8 | 1.5 | 1% | -0.2
COc1ccc(C(=O)NNC(=O)CSc2nnc(C)n2CC2CCCO2)cc1 (stereo not drawn) | 0.68 | 8 | -1.4 | 3.9 | -8.7 | 15% | 1.3
CCOc1ccccc1N1CCN(CC(=O)NCCc2ccc(S(N)(=O)=O)cc2)CC1 | 0.72 | -1 | -0.9 | 1.7 | -2.0 | 10% | 1.7
N#Cc1nc(N2CCCC2)nc(N2CCCC2)n1 | 0.73 | 6 | -1.6 | 8.6 | 3.3 | 2% | -0.4
COCCn1c(N)c(N(Cc2ccccc2)C(=O)CN2C(=O)NC(C)(c3ccccc3)C2=O)c(=O)[nH]c1=O (stereo not drawn) | 0.73 | 1 | -1.7 | 0.6 | 0.6 | . | 0.1
COc1ccc(OC)c(-c2nnc3n2N=C(c2ccc(OC)c(OC4CCCC4)c2)CS3)c1 | 0.68 | 26 | 5.2 | 1.5 | -0.4 | . | -0.4
CCOCCCNC(=O)Cn1nc(-c2ccccc2)ccc1=O | 0.7 | -1 | 1.7 | 2.1 | -1.7 | 27% | 0.8
CCOc1ccccc1C(=O)NCC(=O)N(C)Cc1cccnc1 | 0.67 | 3 | -1.0 | 1.7 | -2.0 | 6% | -1.3
CCc1cccc(NC(=O)c2ccc(CNc3c(N4CCCC4)c(=O)c3=O)cc2)c1 | 0.69 | 5 | 1.1 | 1.4 | 5.0 | -10% | 0.3
COc1cc(CC(=O)NC(c2ccccc2)c2ccccc2)cc(OC)c1OC | 0.65 | 2 | -0.7 | 4.2 | 12 | . | 1.0
S=C(NCCCN1CCOCC1)Nc1cccc(Cl)c1 | 0.7 | 5 | 0.2 | 2.7 | -1.4 | -4% | 0.6
CSc1ncccc1C(=O)OCC(=O)N1CCOCC1 | 0.71 | 8 | 1.4 | 1.9 | -6.1 | 64% | -0.4
O=C(COc1ncnc2ccccc12)NCc1ccc2c(c1)OCO2 | 0.71 | 12 | -4.1 | 0.6 | -0.8 | 0% | 0.9
CC1(NC(=O)Nc2cccc3ccccc23)CCS(=O)(=O)C1 (stereo not drawn) | 0.67 | 1 | 3.3 | -1.2 | 5.5 | 3% | 0.8
COc1ccc(N2CC(C(=O)N/N=C/c3ccc(C)cc3)CC2=O)cc1 (stereo not drawn) | . | -2 | -6.1 | . | 2.1 | . | 2.0
CC(On1nnc2ccccc21)C(=O)N1CCN(Cc2ccccc2)CC1 (stereo not drawn) | 0.71 | -15 | 1.9 | -1.1 | -0.4 | 7% | -0.2
Cc1ccc(N(C(=O)CNC(=O)c2ccco2)C(C(=O)NC2CCCCC2)c2cccnc2)c(C)c1 (stereo not drawn) | 0.68 | 1 | -2.4 | 7.9 | 3.3 | . | -0.3
Cc1ccc(Oc2cc(NC(=O)CCCn3nc(C)c([N+](=O)[O-])c3C)cc([N+](=O)[O-])c2)cc1 | 0.73 | 1 | -2.1 | 1.6 | -3.7 | 9% | 0.1
O=C(CNS(=O)(=O)c1cccs1)N1CCc2ccccc2C1 | 0.69 | -5 | 0.9 | -0.7 | -4.2 | 9% | -0.9
CC1CN(c2nc3ccccn3c(=O)c2/C=C(\C#N)C(=O)N2CCOCC2)CC(C)O1 (stereo not drawn) | . | 3 | -2.0 | . | -9.0 | -2% | 0.4
CC(=O)Nc1ccc(S(=O)(=O)Nc2ccc(Nc3ccccc3)cc2)cc1 | 0.67 | -2 | 0.4 | 1.1 | -0.3 | -1% | 0.7

Next results follow:
SMILES | Ecoli growth | Beta2AR agonist | HNF4A DNA FP | UCH37 DUB inh | LANA-H2B inh | Vif A3G | Bfl-1 A1 inh
Cc1cc(C)c(S(=O)(=O)N2CCCCC2C(=O)O)c(C)c1 (stereo not drawn) | 0.66 | -1 | 0.5 | 0.1 | -1.1 | -11% | 0.3
CC(=O)C[C@H]1c2cc(C(F)(F)F)ccc2S(=O)(=O)N1C1CCCCC1 | . | -7 | -3.7 | 4.4 | -9.8 | . | -0.3
O=C(CN1C(=O)C(=O)N(Cc2ccco2)C1=O)NC1CCCCC1 | 0.63 | -1 | 1.5 | -0.8 | -2.6 | 10% | -0.4
O=C(CSc1ccc([N+](=O)[O-])cc1)Nc1cccc(S(=O)(=O)Nc2ccccc2F)c1 | 0.72 | 3 | -4.6 | 1.3 | -1.1 | 17% | -0.4
C/C(N)=C(/C#N)C(=O)COC(=O)c1ccccc1Cc1ccccc1 | 0.69 | 1 | -1.1 | 0.6 | 3.8 | -2% | 0.0
Nc1ncnc(N(c2ccccc2)C2CCCCC2)c1[N+](=O)[O-] | 0.75 | -6 | 2.2 | -0.5 | -3.9 | -4% | 0.5
CC(C)NC(=O)N1CCC(c2nc3ccccc3s2)CC1 | 0.67 | -1 | 0.8 | 1.2 | -1.7 | -16% | 0.3
CCCCn1nnnc1NCc1cccs1 | 0.68 | 2 | -0.9 | 1.4 | -1.4 | 11% | 0.4
O=C(CBr)N1CCc2ccccc2C(c2ccccc2)C1 (stereo not drawn) | . | -6 | -1.0 | . | 2.5 | ? | 0.9
O=[N+]([O-])c1ccc(C(=S)N2CCC(Cc3ccccc3)CC2)cc1 | 0.72 | 1 | -1.0 | -0.3 | 1.5 | . | -0.4
CCOC(=O)c1cc(=O)n(Cc2ccccc2C)c2ccccc12 | 0.66 | 0 | -0.7 | -7.2 | 2.7 | 0% | 0.8
CCOc1ccc(N2C(=O)CC(n3nc(C)cc3C)C2=O)cc1 (stereo not drawn) | 0.75 | -5 | 0.3 | -1.1 | -4.8 | 15% | 0.2
CC1CCCCN1S(=O)(=O)c1ccc(S(=O)(=O)N2CCN(c3ccccc3)CC2)cc1 (stereo not drawn) | 0.66 | 2 | -0.4 | 4.2 | -0.6 | 1% | 0.3
COc1ccccc1NC(=O)c1ccc(NC(=O)c2nc3nccc(C)n3n2)cc1 | 0.64 | 4 | 5.5 | 5.5 | 3.2 | . | 0.1
C/C(=N\NC(=O)CNC(=O)c1ccncc1)c1ccc(C)cc1 | . | -1 | -4.8 | . | 1.5 | 15% | -0.7
